Compound activity: PubChem BioAssay, several laboratories
CBX7 inh: blocks human CBX7 binding to H3K27me3 peptide. 66,000 tested, 1.1% active. O95931. AlphaScreen His6-CBX7 / biotin-H3K27me3 peptide binding; active compounds read low. AID 1224903. normalised signal (fraction of DMSO) (test concentration not listed); in the data active = normalised signal below about 0.5;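 note: 100 nL library stock added to about 20 µL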
Target sequence (O95931 whole entry, looked up): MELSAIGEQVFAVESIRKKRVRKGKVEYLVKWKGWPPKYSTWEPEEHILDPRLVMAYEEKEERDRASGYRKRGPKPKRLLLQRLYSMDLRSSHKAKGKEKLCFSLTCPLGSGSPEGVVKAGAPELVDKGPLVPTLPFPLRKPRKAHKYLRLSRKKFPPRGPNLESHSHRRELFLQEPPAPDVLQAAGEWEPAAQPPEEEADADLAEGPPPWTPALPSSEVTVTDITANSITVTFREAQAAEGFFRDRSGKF
CBX7 inh z-score: second read-out of CBX7 inh, no call of its own (marks repeat the call); z-score; measured here: z-score of CBX7 signal; some inactives read as strong as hits; reference of the scale not given here;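 same signal on another scale; lower means less binding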
* hit, by the source's call; & = joins results of further samples.

The opening seven compounds as a preview:
SMILES | CBX7 inh | CBX7 inh z-score
CCC(=O)N1CCc2cc(S(=O)(=O)NCCCN3CCCC(C)C3)ccc21 (centres undefined) | 1.04 | 0.867
CCc1ccc(NS(=O)(=O)c2ccc3[nH]cc(C(=O)NCc4cccs4)c(=O)c3c2)cc1 | 1.02 | 0.0867
CCOc1ccc(NC(=O)CSc2nc(Nc3ccc(F)cc3)c3ccccc3n2)cc1 | 1.01 | 0.637
CCN(CC)S(=O)(=O)c1ccc(C(=O)NCCc2cc3cc(C)c(C)cc3[nH]c2=O)cc1 | 1.04 | 1.53
CN(C)c1ccc(CNC(=O)C2CCCN(S(=O)(=O)c3cnc[nH]3)C2)cc1 (centres undefined) | 0.935 | -1.48
CCOc1ccc(OCC)c(NC(=O)c2cc(-c3cccs3)nc3ccccc23)c1 | 1.01 | 0.086
CCCNC(=O)CCn1nc(-c2ccc(C)cc2)c2ccccc2c1=O | 1.04 | 1.03

All compounds of this part, previewed entries included:
SMILES | CBX7 inh | CBX7 inh z-score
CCC(=O)N1CCc2cc(S(=O)(=O)NCCCN3CCCC(C)C3)ccc21 (centres undefined) | 1.04 | 0.867
CCc1ccc(NS(=O)(=O)c2ccc3[nH]cc(C(=O)NCc4cccs4)c(=O)c3c2)cc1 | 1.02 | 0.0867
CCOc1ccc(NC(=O)CSc2nc(Nc3ccc(F)cc3)c3ccccc3n2)cc1 | 1.01 | 0.637
CCN(CC)S(=O)(=O)c1ccc(C(=O)NCCc2cc3cc(C)c(C)cc3[nH]c2=O)cc1 | 1.04 | 1.53
CN(C)c1ccc(CNC(=O)C2CCCN(S(=O)(=O)c3cnc[nH]3)C2)cc1 (centres undefined) | 0.935 | -1.48
CCOc1ccc(OCC)c(NC(=O)c2cc(-c3cccs3)nc3ccccc23)c1 | 1.01 | 0.086
CCCNC(=O)CCn1nc(-c2ccc(C)cc2)c2ccccc2c1=O | 1.04 | 1.03
Cc1cccc(Nc2nc(-c3cc4cc(Br)ccc4oc3=O)cs2)c1 | 1.07 | 1.62
Cc1ccc(NC(=O)C2CCC(CNS(=O)(=O)c3cccc4cccnc34)CC2)cc1 (centres undefined) | 0.967 | -1.48
CC(C)(C)c1ccc(C(=O)Nc2ccc3oc(Cc4ccc(Cl)cc4)nc3c2)cc1 | 1.05 | 2.46
CCOC(=O)c1oc2ccccc2c1NC(=O)CN1CCOCC1 | 1.07 | 0.597
CC(=O)Nc1nc(C)c(-c2csc(Nc3ccc(O)cc3)n2)s1 | 0.893 | -0.269
Nc1nonc1-c1nc2ccccc2n1Cc1cccc(C(F)(F)F)c1 | 1.05 | 2.74
Cc1c(Cl)cccc1NC(=O)C(=O)NCCc1c[nH]c2ccccc12 | 0.955 | -0.975
Cc1cc(C)cc(NC(=O)CSc2oc(-c3ccccc3)nc2S(=O)(=O)c2ccccc2)c1 | 0.908 | -0.66
CCC1=Nc2cc(C(=O)NCc3ccc(C)cc3)ccc2Sc2ccc(C)cc21 | 0.72 | -3
COc1ccccc1-n1cnc2cc(C(=O)NCCCN3CCOCC3)ccc21 | 1.03 | 0.691
COCCCNC(=O)C1CCN(c2cc(C)nc3c(-c4ccc(OC)c(OC)c4)c(C)nn23)CC1 | 0.95 | -2.36
Cc1ccc(Cl)cc1NC1c2ncccc2C(=O)N1Cc1ccc(F)cc1 (centres undefined) | 0.862 | -1.78
COc1ccc(NC(=O)Cn2cc(S(=O)(=O)c3ccc(Cl)cc3)c(=O)c3ccccc32)cc1 | 1.01 | 0.0994
Cc1cc2nc(-c3ccc(NC(=O)c4ccccc4C)cc3)oc2cc1C | 1.05 | 0.218
COc1ccc(-n2c3c(cc(C(=O)Nc4ccc(N(C)C)cc4)c2=O)C(=O)CC(C)(C)C3)cc1 | 0.909 | -0.393
Cn1nc(-c2ccc(Cl)cc2)c2cc(C(=O)Nc3ccc(F)cc3)sc21 | 1.02 | 0.367
CCCNC(=O)C1CC(c2ccc(OC)cc2)=NO1 (centres undefined) | 1.16 | 2.11
COc1cc2c(cc1OC)C(c1ccc(Cl)c(F)c1)CC(=O)N2 (centres undefined) | 0.995 | -0.205
Fc1ccccc1-c1nc(N2CCN(Cc3ccc4c(c3)OCO4)CC2)c2ccccc2n1 | 0.663 | -3.34
COc1cc(Nc2nc(-c3ccc(Cl)cc3)cs2)c(OC)cc1Cl | 1.03&1.03 | 0.525&0.293
Cc1cc(N2CC(C)CC(C)C2)n2nc(C)c(-c3ccc(Cl)cc3)c2n1 (centres undefined) | 1.57 | 5.64
CCC(=O)N1CCc2cc(S(=O)(=O)NC3CCN(Cc4ccccc4)CC3)ccc21 | 0.962 | -0.738
O=C(Cn1nc(-c2ccccc2)c2cc(Cl)ccc21)NC1CCCC1 | 1.04 | 1.45
CCCCCCn1c(COc2ccccc2)nc2ccccc21 | 0.987 | -0.448
CCCCOC(=O)c1ccc(NC(=O)c2cnc3ccccn3c2=O)cc1 | 1.06 | 1.64
O=C(CN1CCN(Cc2ccccc2Cl)C1=O)NCCN1CCOCC1 | 0.923 | -1.11
NC(=O)c1nn(-c2ccc(OC(F)(F)F)cc2)nc1N | 0.988 | -0.116
Cc1cccc(NC(=O)c2cc(-c3ccccc3)nc3ccc(C)cc23)c1 | 1.06 | 2.04
O=C(NCc1nc2ccccc2n1Cc1ccccc1F)c1ccccc1 | 0.798 | -3.08

Three entries picked at random from those above:
SMILES | CBX7 inh | CBX7 inh z-score
COc1ccc(-n2c3c(cc(C(=O)Nc4ccc(N(C)C)cc4)c2=O)C(=O)CC(C)(C)C3)cc1 | 0.909 | -0.393
Cc1ccc(NC(=O)C2CCC(CNS(=O)(=O)c3cccc4cccnc34)CC2)cc1 (centres undefined) | 0.967 | -1.48
Cn1nc(-c2ccc(Cl)cc2)c2cc(C(=O)Nc3ccc(F)cc3)sc21 | 1.02 | 0.367

(further entries)
SMILES | CBX7 inh | CBX7 inh z-score
COc1ccc(C(CC(=O)c2ccco2)Sc2cccc3cccnc23)cc1OC (centres undefined) | 0.00504* | -3.93*
CCc1ccc2nc(N3CCC(C(=O)NCCN(C)C)CC3)sc2c1 | 1.6 | 1.22
O=C(CN1C(=O)COc2ccccc21)NCc1ccc(F)cc1 | 0.984 | -0.523
Cc1ccc(C)c(Cn2c(CCCNC(=O)C(C)(C)C)nc3ccccc32)c1 | 0.969 | -0.322
O=C(Nc1ccccc1C(=O)N1CCOCC1)c1cccc(S(=O)(=O)N2CCCCC2)c1 | 1.16 | 2.51
COCCCNC(=O)c1csc2c1CCCCC2 | 0.985 | -0.378
Cc1ccc(C)c(N2C(=O)C3C4C=CC(C4=C4CCCC4)C3C2=O)c1 (centres undefined) | 1.05 | 0.708
CCCOc1ccccc1N1C(=O)C2C3C=CC(C3=C(c3ccccc3)c3ccccc3)C2C1=O (centres undefined) | 0.977 | -0.822
COC(=O)c1c(NC(=O)c2cccc(Br)c2)sc2c1CCC(C)C2 (centres undefined) | 1.56 | 4.74
CCOc1ccc(-n2ccnc2SCC(=O)Nc2ccccc2)cc1 | 0.963 | -0.293
Cc1ccc(-n2ncc(C(=O)Nc3ccccc3C)c2C2CCNCC2)cc1 | 0.818 | -2.43
CC(C)NC(=O)CNc1ccccc1-c1nc2ccccc2[nH]c1=O | 0.969 | -0.947
CCOC(=O)C1CCN(S(=O)(=O)c2ccc3c(c2)CCN3C(=O)C2CC2)CC1 | 0.985 | -0.347
COCCCNC(=O)c1cc(-c2cccnc2)nc2ccc(S(=O)(=O)N3CCCCCC3)cc12 | 1 | 0.072
Cc1nc2c(-c3ccc(F)cc3)c(C)nn2c(C)c1CCC(=O)NCc1cccnc1 | 0.994 | -0.04
CCOC(=O)c1cc(-c2ccccc2)n(CCC(=O)Nc2nc3ccc(C)cc3s2)c1C | 0.894 | -1.91
O=C(Cn1c(NCCCO)nc2ccccc21)c1cccc2ccccc12 | 1.02 | 0.647
CCOc1ccc(-c2cc(C)nc(-c3ccc(OCC)cc3)c2)cc1 | 1.26 | 5.15
CCN(CC)S(=O)(=O)c1ccc2oc(C(=O)NC(C)C)c(C)c2c1 | 1.32 | 3.24
O=C(NCc1ccc2c(c1)OCO2)C1(S(=O)(=O)c2ccc(Cl)cc2)CC1 | 0.978 | -0.581
CC(C)Oc1ccc(C2CC(=O)Nc3cc4c(cc32)OCO4)cc1 (centres undefined) | 0.92 | -0.107
O=C(Nc1ccc(F)cc1)c1csc2c1CCCCC2 | 1.06 | 2.16
CCCCNC(=O)c1ccc2c(c1)N(Cc1ccccc1)C(=O)c1ccccc1S2 | 0.979 | -0.2
COc1cc(CNC(C)(C)CO)cc(Cl)c1OCC(N)=O | 1.01 | 0.356
CC(C)OCCCNC(=O)c1cc2c(-c3ccc(Cl)cc3)nn(C)c2s1 | 1.14 | 0.573
CCc1ccc(-c2nc(SCC(=O)NCC3CCCO3)c(-c3ccccc3)[nH]2)cc1 (centres undefined) | 0.848 | -3.76
COc1ccc(NC(=O)CC(C)CC2=NS(=O)(=O)c3ccccc3N2)cc1Cl (centres undefined) | 1.1 | 1.06
Cn1c(SCc2ccccc2F)nnc1-c1c[nH]c2ccccc12 | 0.78 | -3.8
O=c1[nH]c(-c2ccc(F)cc2)cn1-c1cccc(Cl)c1 | 0.953 | -1.37
Cc1cccc(NC(=O)CCc2c(C)nc3c(-c4ccc(F)cc4)c(C)nn3c2C)c1C | 1.11 | 1.66
COc1cccc(NC(=O)CN2C(=O)CSc3ncccc32)c1 | 0.986 | -0.035
N#Cc1nc(COc2ccc(Cl)cc2)oc1N1CCC(Cc2ccccc2)CC1 | 0.927 | -3.2
Cc1ccc(CCNS(=O)(=O)c2ccc3c(c2)CCC(=O)N3)cc1 | 1.01 | 0.462
CCc1ccc(NC(=O)c2cc3c(-c4cccc(OC)c4)nn(C)c3s2)cc1 | 1.05 | 1.28
CC1CCN(S(=O)(=O)c2ccc3c(c2)N(CC(=O)NCCc2ccccc2)C(=O)CO3)CC1 | 1.02 | 0.774
CCc1cccc(C)c1NC(=O)c1cc(S(=O)(=O)N2CCC(C)CC2)ccc1F | 1.06 | 0.659
CC1Cc2ccccc2N1C(=O)CN(C)S(=O)(=O)c1cccc2cccnc12 (centres undefined) | 1.01 | 0.136
CC(C)Cc1cc(C(=O)Nc2ccc(C#N)cc2)no1 | 1.03 | 1.04
Cc1ccc(S(=O)(=O)c2nc(-c3ccc(F)cc3)oc2SCC(C)C)cc1 | 1.03 | 0.0478
O=C(c1cc(-c2ccc3c(c2)OCO3)on1)N1CCCCC1 | 0.811 | -2.61
COc1cc(OC)cc(C(=O)N(Cc2nc(-c3ccc(C)cc3)no2)C(C)C)c1 | 0.672 | -3.26
O=C(c1ccccc1-c1nc2ccccc2[nH]1)N1CCOCC1 | 0.935 | -0.703
Cc1oc(-c2cccc(Cl)c2)nc1CN1CCC(C(=O)NCCCN2CCCC2)CC1 | 2.48 | 12.6
COc1ccccc1-c1nc(SCC(=O)N2CCOCC2)n[nH]1 | 0.935 | -1.04
Cc1ccc(S(=O)(=O)c2cn(CC(=O)Nc3ccc4c(c3)OCO4)c3ccccc3c2=O)cc1 | 0.729 | -3.79
O=C(Nc1ncc(Cc2ccc(Cl)cc2)s1)C(c1ccccc1)c1ccccc1 | 0.878 | -1.76
COC(=O)c1ccc(NC(=O)Cn2cnc3c(nnn3Cc3ccccc3F)c2=O)cc1 | 0.929 | -1.36
Cc1ccc(Nc2nc(-c3ccccc3)c3cc(Br)ccc3n2)cc1 | 1.4 | 11.5
CCCCSCCCNC(=O)c1cc(Nc2ccccc2)nc2ccccc12 | 1.06 | 1.83
Cc1cccc(Nc2nc(C)nc3sc4c(c23)CCC4)c1 | 1.01 | 0.227
CCOc1ccc(C(=O)Nc2nnc(CC)s2)cc1Cl | 1.07 | 0.605
COc1ccccc1-n1cnc2cc(NC(=O)c3ccccc3)ccc21 | 1.01 | 0.253
Cc1ccc(NC2c3ccccc3C(=O)N2c2ccccn2)c(C)c1 (centres undefined) | 0.905 | -3.12
CC1CCN(c2c(NCc3ccc(C(=O)NC4CCCCCCC4)cc3)c(=O)c2=O)CC1 | 1 | 0.0628
Cc1c(NC(=O)COc2ccccc2Cl)cccc1-c1nc2ncccc2o1 | 1.13 | 0.47
Cc1c(C(=O)NCc2cccnc2)sc2ncn(CC(=O)Nc3cccc(C(F)(F)F)c3)c(=O)c12 | 1.03 | 0.769
Cc1ccc(NCC(O)Cn2c(C)c(C)c3ccccc32)cc1 (centres undefined) | 0.527 | -3.11
COc1ccc(OC)c(NC(=O)CSc2nnc(-c3c[nH]c4ccccc34)n2C)c1 | 1.05 | 0.897
O=C(c1ccccc1Br)n1cnc(SCc2ccccc2)n1 | 0.973 | -0.32
COc1ccc(-c2nnc(Oc3cccc(NC(C)=O)c3)c3ccccc23)cc1 | 0.836 | -0.648

More results.
SMILES | CBX7 inh | CBX7 inh z-score
COc1ccc(OC)c(NC(=O)C2CCN(S(=O)(=O)c3c(C)noc3C)CC2)c1 | 1.03 | 1.27
Cc1cccc(-n2ccnc2SCC(=O)Nc2ccc(F)cc2)c1 | 0.913 | -0.0864
Cc1ccc2c(c1)C(c1ccccc1)N(C(=O)CCc1ccccc1)CC(=O)N2 (centres undefined) | 1.06 | 0.0811
CCC(=O)N1CCc2cc(Br)cc(S(=O)(=O)NCCN3CCCCC3CC)c21 (centres undefined) | 1.04 | 2.02
CCCCN(C)C(=O)c1sc2ncn(CC(=O)NCCC)c(=O)c2c1C | 1.04 | 0.507
O=C(O)c1ccc(Nc2ncnc3[nH]ncc23)cc1 | 1.09 | 1.26
Cc1nc(Nc2ccc(F)cc2)c2c(C)c(C)sc2n1 | 0.792 | -0.274
COc1ccccc1CNC(=O)Cc1c(C(=O)O)[nH]c2ccccc12 | 0.976 | -0.526
COC(=O)Cc1nc(NCc2ccccc2OC)c2c(C)c(C)sc2n1 | 0.957 | -1.51
COc1ccccc1N1CCN(C(=O)c2cc(-c3ccc4c(c3)OCO4)on2)CC1 | 0.85 | -2.06
COc1ccc(-n2nc3c(c2NC(=O)c2ccccc2F)CSC3)cc1 | 0.889 | -2.52
Cc1ccc(OCC(=O)Nc2ccc(-c3nc4ccccc4o3)cc2)c(C)c1 | 1.2 | 2.03
Cc1nn(Cc2ccccc2)c(C)c1NC(=O)c1cc(-c2cccs2)on1 | 1 | 0.0475
O=C1c2ccccc2C(Nc2cc(F)ccc2F)N1c1cccnc1 (centres undefined) | 1.11 | 1.89
COc1ccc(C(=O)Nc2ccc(-c3nc4ncccc4o3)cc2)cc1Cl | 1.09 | 1.61

A portion of the library. The share of hits here may be higher or lower than overall.
